Source: PubChem BioAssay
Insulin prom inh – TRM-6 insulin promoter activity inhibition; AID 1273; inhibition, % at 2 µM; actives 0.9% (n = 130,000); TRM-6 cells (human fetal islet line), insulin promoter-eGFP reporter, imaging; reporter expression induced with tamoxifen;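 active = inhibition above the mean plus 3 SD, with well images judged a real hit on visual review, cut at about 60% in these data, passing the limit was not always enough; inconclusive = inhibition over the cutoff but images rejected on review; inactive = inhibition not above the cutoff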
RGS16-Gao – regulators of human RGS16-Galphao interaction; bead-based flow cytometry RGS16-Galphao binding, fluorescence; actives lie on both sides; binding response (% of control), % at 10 µM; actives 0.38% (n = 220,000); AID 1441;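 active = below 25% or above 175%, edge rows of some plates excepted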;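 also: Galphao activated by GDP with aluminum fluoride before binding; 100% = wells without compound and 0% = beads without RGS; some results beyond the cut were filed as inactive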
Target sequence (O15492 whole entry, looked up): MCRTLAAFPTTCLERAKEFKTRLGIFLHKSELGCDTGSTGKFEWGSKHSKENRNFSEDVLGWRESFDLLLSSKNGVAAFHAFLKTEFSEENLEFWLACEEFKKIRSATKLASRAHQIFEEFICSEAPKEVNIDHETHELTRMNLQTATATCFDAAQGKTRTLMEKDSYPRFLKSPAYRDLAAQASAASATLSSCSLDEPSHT
Target sequence (P09471 whole entry, looked up): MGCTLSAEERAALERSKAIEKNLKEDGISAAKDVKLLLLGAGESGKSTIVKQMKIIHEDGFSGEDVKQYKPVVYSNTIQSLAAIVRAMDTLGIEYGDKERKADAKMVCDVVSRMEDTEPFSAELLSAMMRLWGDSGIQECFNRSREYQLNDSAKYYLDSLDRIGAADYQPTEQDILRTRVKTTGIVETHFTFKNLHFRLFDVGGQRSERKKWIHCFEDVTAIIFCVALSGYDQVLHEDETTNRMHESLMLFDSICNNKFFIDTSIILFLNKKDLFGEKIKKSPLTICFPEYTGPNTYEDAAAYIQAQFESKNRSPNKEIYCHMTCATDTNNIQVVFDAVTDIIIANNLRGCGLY
GALR2 agonist – activates the human galanin receptor 2; AID 803; actives 0.48% (n = 140,000); GALR2-expressing cells, agonist activation read-out; activation, %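 (tested at 5 µM)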; O43603;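 active = above mean plus 3 SD of all compounds, about 5% in these data, not always enough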;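 also: 0% = vehicle buffer wells and 100% = reference agonist at full effect; tested in CHO reporter cells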
Target sequence (O43603 whole entry, looked up): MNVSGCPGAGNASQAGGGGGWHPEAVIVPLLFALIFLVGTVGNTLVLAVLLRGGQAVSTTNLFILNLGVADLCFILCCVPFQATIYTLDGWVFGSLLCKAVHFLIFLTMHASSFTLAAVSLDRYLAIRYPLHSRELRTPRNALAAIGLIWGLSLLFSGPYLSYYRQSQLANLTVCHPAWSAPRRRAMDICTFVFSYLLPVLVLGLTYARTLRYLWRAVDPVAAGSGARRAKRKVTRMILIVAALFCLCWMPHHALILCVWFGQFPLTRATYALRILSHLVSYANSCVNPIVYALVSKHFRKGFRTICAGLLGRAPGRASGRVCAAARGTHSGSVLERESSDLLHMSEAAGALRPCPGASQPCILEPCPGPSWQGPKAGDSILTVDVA
HSV augment – increases HSV replication in cells. AID 1956. HSV replication augmentation in cells, fold increase. maximum fold increase. actives 0.005% (n = 220,000);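 active = peak rise of 1.5-fold or more in the series; inconclusive = self-fluorescent or not available for retest; tested in PC3 cells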;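 also: first round at 10 µM; read as green reporter fluorescence; hits show the peak of a series up to 25 µM; 1 = signal of infected wells without compound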
PKD1 inh – inhibitors of human PKD1 kinase | PKD1 kinase fluorescence polarization assay | actives 0.056% (n = 200,000) | inhibition, %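 (about 10 µM by stock and volumes)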 | Q15139;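 active = inhibition of 50% or more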;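 also: controls were vehicle for no effect and a reference inhibitor for full effect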
Insulin prom inh cell count – also measured in Insulin prom inh; calls as there; normalized cell count, %; measured here: cell count, toxicity; reference of the scale not given here;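 cells exposed to compound for 48 h; stained nuclei by imaging scaled within each plate; lower means fewer cells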
HSV augment primary fold – second read-out of HSV augment, no call of its own (marks repeat the call); fold increase; compound at 10 µM; measured here: primary screen fold increase 10 uM; tested in PC3 cells;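 GFP signal in the first replicate; 1 = infected wells without compound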
* marks the source's active call; other numbers are inactive results.

How did COc1ccc(COC(=O)N/N=C(\C)CC(=O)Nc2ccc(Cl)cn2)cc1 do in these assays?
RGS16-Gao: 107; HSV augment: inactive; HSV augment primary fold: 0.84

How did Cc1ccc(SCC(=O)Nc2cccc(-c3nnc(-c4ccco4)o3)c2)cc1 do in these assays?
Insulin prom inh: -13; RGS16-Gao: 84; GALR2 agonist: -2.3; HSV augment: inactive; PKD1 inh: -12; Insulin prom inh cell count: 118; HSV augment primary fold: 0.99

How did COc1ccc(CN2CCN(C(=O)c3cccc(OC)c3OC)CC2)cc1OC do in these assays?
RGS16-Gao: 102; HSV augment: inactive; PKD1 inh: 7; HSV augment primary fold: 1

What do the screens show for `CCOC(=O)N1CCN(C(=O)CN(c2cc(Cl)ccc2OC)S(=O)(=O)c2ccccc2)CC1`?
Insulin prom inh: -27; RGS16-Gao: 104; GALR2 agonist: 0.1; HSV augment: inactive; PKD1 inh: -4; Insulin prom inh cell count: 92; HSV augment primary fold: 0.78

Results for COc1ccccc1NS(=O)(=O)c1ccc(C(=O)OCC(=O)NCc2ccco2)cc1 ?
Insulin prom inh: 29; RGS16-Gao: 86; GALR2 agonist: -3.3; HSV augment: inactive; PKD1 inh: 7; Insulin prom inh cell count: 125; HSV augment primary fold: 1.1

What do the screens show for `CC1CN(C(=O)c2ccc(COc3ccc(C(C)C)cc3)o2)CC(C)O1` (stereo not given)?
Insulin prom inh: -35; RGS16-Gao: 102; HSV augment: inactive; PKD1 inh: -5; Insulin prom inh cell count: 69; HSV augment primary fold: 0.87

How did Cc1cccc(Nc2c([N+](=O)[O-])c(=O)oc3ccccc23)c1 do in these assays?
RGS16-Gao: 107; HSV augment: inactive; HSV augment primary fold: 0.93

Results for CC(C)NC(=O)Cn1cc(C(=O)COc2ccccc2)c2ccccc21 ?
RGS16-Gao: 105; HSV augment: inactive; PKD1 inh: 2; HSV augment primary fold: 1

How did O=C(Cn1ncc2c1-c1ccccc1OC2)Nc1ccc(Cl)cn1 do in these assays?
RGS16-Gao: 95; GALR2 agonist: -2.4; HSV augment: inactive; PKD1 inh: -15; HSV augment primary fold: 0.97

Results for Brc1cc2c(cc1/C=N/Nc1nc(N3CCCC3)nc(N3CCOCC3)n1)OCO2 ?
Insulin prom inh: 24; RGS16-Gao: 106; GALR2 agonist: -4.0; HSV augment: inactive; PKD1 inh: -9; Insulin prom inh cell count: 188; HSV augment primary fold: 0.84

What do the screens show for `O=S(=O)(NC1CCCC1)c1ccc(S(=O)(=O)N(Cc2cccs2)CC2CCCO2)cc1` (stereo not given)?
RGS16-Gao: 97; GALR2 agonist: -0.3; HSV augment: inactive; PKD1 inh: 4; HSV augment primary fold: 1.1

How did NC(=O)c1c(Nc2nc3c(F)cccc3s2)sc2c1CCCC2 do in these assays?
RGS16-Gao: 95; GALR2 agonist: -0.2; HSV augment: inconclusive; PKD1 inh: -7

Overlap with the part before: four compounds, then new ones.
How did O=C(Cn1ncc2c1-c1ccccc1OC2)Nc1ccc(Cl)cn1 do in these assays?
RGS16-Gao: 95; GALR2 agonist: -2.4; HSV augment: inactive; PKD1 inh: -15; HSV augment primary fold: 0.97

Results for Brc1cc2c(cc1/C=N/Nc1nc(N3CCCC3)nc(N3CCOCC3)n1)OCO2 ?
Insulin prom inh: 24; RGS16-Gao: 106; GALR2 agonist: -4.0; HSV augment: inactive; PKD1 inh: -9; Insulin prom inh cell count: 188; HSV augment primary fold: 0.84

What do the screens show for `O=S(=O)(NC1CCCC1)c1ccc(S(=O)(=O)N(Cc2cccs2)CC2CCCO2)cc1` (stereo not given)?
RGS16-Gao: 97; GALR2 agonist: -0.3; HSV augment: inactive; PKD1 inh: 4; HSV augment primary fold: 1.1

How did NC(=O)c1c(Nc2nc3c(F)cccc3s2)sc2c1CCCC2 do in these assays?
RGS16-Gao: 95; GALR2 agonist: -0.2; HSV augment: inconclusive; PKD1 inh: -7

How did O=C(CNS(=O)(=O)c1cccc2nsnc12)NCc1ccc(Cl)cc1 do in these assays?
Insulin prom inh: 12; RGS16-Gao: 96; GALR2 agonist: -2.6; HSV augment: inactive; PKD1 inh: 2; Insulin prom inh cell count: 70; HSV augment primary fold: 0.92

What do the screens show for `Cc1sc(NC(=O)CCCC(=O)O)c(C(N)=O)c1-c1ccccc1`?
RGS16-Gao: 98; HSV augment: inactive; PKD1 inh: 3; HSV augment primary fold: 1

What do the screens show for `CCCOP(=O)(OCCC)c1nc(-c2ccccc2)oc1NCc1ccccc1`?
Insulin prom inh: 0; RGS16-Gao: 111; GALR2 agonist: -0.5; HSV augment: inactive; PKD1 inh: 1; Insulin prom inh cell count: 110; HSV augment primary fold: 1

Results for O=C(c1cc(COc2ccc(F)cc2Cl)on1)N1CCCC(c2ccccc2)C1 (stereo not given) ?
Insulin prom inh: -42; RGS16-Gao: 104; HSV augment: inactive; PKD1 inh: 4; Insulin prom inh cell count: 102; HSV augment primary fold: 0.96

What do the screens show for `Cc1cc(Oc2ccccc2)nc(SCC(=O)Nc2ccccc2)n1`?
Insulin prom inh: -26; RGS16-Gao: 31; GALR2 agonist: -1.7; HSV augment: inactive; PKD1 inh: 3; Insulin prom inh cell count: 80; HSV augment primary fold: 1.3

How did O=S(=O)(Nc1cc(Cl)ccn1)c1ccc(Cl)cc1 do in these assays?
Insulin prom inh: 7; RGS16-Gao: 106; GALR2 agonist: 2.5; HSV augment: inactive; PKD1 inh: -4; Insulin prom inh cell count: 95; HSV augment primary fold: 1.1

Results for CN1c2ccccc2C(O)=C(C(=S)Nc2ccc(F)c(Cl)c2)S1(=O)=O ?
Insulin prom inh: 8; RGS16-Gao: 102; GALR2 agonist: -0.3; HSV augment: inactive; PKD1 inh: -12; Insulin prom inh cell count: 56; HSV augment primary fold: 0.95

Results for CSC(=NC#N)N1CCN(c2ccc([N+](=O)[O-])cc2)CC1 ?
Insulin prom inh: -37; RGS16-Gao: 101; HSV augment: inactive; PKD1 inh: -11; Insulin prom inh cell count: 78; HSV augment primary fold: 0.81

Results for CCOc1ccc2ccccc2c1/C=N/NC(=O)CNC(=O)C(c1ccccc1)c1ccccc1 ?
RGS16-Gao: 103; GALR2 agonist: -0.2; HSV augment: inactive; PKD1 inh: -7; HSV augment primary fold: 0.89

Results for OC(CN1C2=NCCN2c2ccccc21)c1ccccc1 (stereo not given) ?
RGS16-Gao: 106; GALR2 agonist: -1.3; HSV augment: inactive; PKD1 inh: -12; HSV augment primary fold: 0.78

Results for O=C(Nc1ccc(N2CCCCC2)cc1)c1ccc(F)cc1F ?
RGS16-Gao: 104; HSV augment: inactive; HSV augment primary fold: 1.1

How did CCCCn1c(SCC(N)=O)nnc1-c1cc(OC)c(OC)c(OC)c1 do in these assays?
Insulin prom inh: -40; RGS16-Gao: 135; GALR2 agonist: 0.4; HSV augment: inactive; PKD1 inh: -16; Insulin prom inh cell count: 89; HSV augment primary fold: 1.1

What do the screens show for `C(#CC1CCCC1)c1ccc2c(c1)COc1c3ccccc3nn1-2`?
RGS16-Gao: 109; HSV augment: inactive; HSV augment primary fold: 0.92

Results for CCc1ccc(NC(=S)N2CCCC(C(F)(F)F)C2)cc1 (stereo not given) ?
RGS16-Gao: 101; HSV augment: inactive; PKD1 inh: -5; HSV augment primary fold: 0.98

How did O=C(Nc1ccccc1C(=O)N1CCNCC1)c1ccco1 do in these assays?
Insulin prom inh: -74; RGS16-Gao: 110; GALR2 agonist: -1.6; HSV augment: inactive; PKD1 inh: -1; Insulin prom inh cell count: 94; HSV augment primary fold: 0.98

How did c1ccc(C(Cc2nc(-c3ccncc3)no2)c2ccccc2)cc1 do in these assays?
RGS16-Gao: 74; GALR2 agonist: -1.9; PKD1 inh: -3

Results for O=C(CN1CC(=O)Oc2ccccc21)NCc1ccco1 ?
RGS16-Gao: 99; GALR2 agonist: -2.0; HSV augment: inactive; PKD1 inh: 0; HSV augment primary fold: 0.9

Results for C/C(CC(=O)Nc1ccc(C)c(Cl)c1)=N\NC(=O)Cc1ccccc1 ?
Insulin prom inh: -37; RGS16-Gao: 34; GALR2 agonist: -0.5; HSV augment: inactive; PKD1 inh: -1; Insulin prom inh cell count: 102; HSV augment primary fold: 0.88

How did CCOc1cc(/C=C\[N+](=O)[O-])ccc1OCC(=O)N1CCOCC1 do in these assays?
Insulin prom inh: 33; RGS16-Gao: 95; HSV augment: inactive; PKD1 inh: 10; Insulin prom inh cell count: 120; HSV augment primary fold: 0.57

What do the screens show for `Cc1nnc(OCC(=O)NCCC2=CCCCC2)c2ccccc12`?
Insulin prom inh: 50; RGS16-Gao: 104; GALR2 agonist: -1.4; HSV augment: inactive; PKD1 inh: -12; Insulin prom inh cell count: 123; HSV augment primary fold: 0.58

How did Cc1[nH]c2ccccc2c1C(=O)CSc1nc2ccccc2[nH]1 do in these assays?
RGS16-Gao: 91; GALR2 agonist: -0.1; HSV augment: inactive; PKD1 inh: 0; HSV augment primary fold: 0.89

Results for Cc1ccc(C(C#N)c2ccc3c(C(F)(F)F)cc(C(F)(F)F)nc3n2)cc1 (stereo not given) ?
Insulin prom inh: 5; RGS16-Gao: 108; GALR2 agonist: -2.0; HSV augment: inactive; PKD1 inh: -11; Insulin prom inh cell count: 144; HSV augment primary fold: 0.86

Results for COc1ccc(NS(=O)(=O)c2ccc(NC(=S)NC(=O)C(C)C)cc2)cc1 ?
Insulin prom inh: 14; RGS16-Gao: 102; GALR2 agonist: -2.3; HSV augment: inactive; PKD1 inh: 9; Insulin prom inh cell count: 108; HSV augment primary fold: 0.76

How did O=C(c1cc2nc(-c3ccco3)cc(C(F)(F)F)n2n1)N1CCN(c2ccc(F)cc2)CC1 do in these assays?
RGS16-Gao: 96; GALR2 agonist: -0.6; PKD1 inh: -5

Results for CC1(C)Cc2c(sc3c2c(N)nc(=S)n3Cc2ccc(Br)cc2)CO1 ?
RGS16-Gao: 103; HSV augment: inactive; HSV augment primary fold: 0.94

How did O=C(Nc1ccc2nc3ccccc3nc2c1)c1ccccc1 do in these assays?
RGS16-Gao: 106; GALR2 agonist: -0.7; HSV augment: inactive; PKD1 inh: -4; HSV augment primary fold: 1.4

Results for CC(=O)c1ccc(N2CCN(c3ccc(S(=O)(=O)NCCN(C)C)cc3[N+](=O)[O-])CC2)cc1 ?
RGS16-Gao: 100; HSV augment: inactive; HSV augment primary fold: 0.86

What do the screens show for `CCc1ccc(CNC(=O)C2CCCN(c3nc4ccccc4o3)C2)cc1` (stereo not given)?
Insulin prom inh: 25; RGS16-Gao: 106; GALR2 agonist: -1.9; HSV augment: inactive; PKD1 inh: -1; Insulin prom inh cell count: 66; HSV augment primary fold: 0.77

Results for O=C(O)Cc1coc2cc3c(cc12)CCC3 ?
Insulin prom inh: 29; RGS16-Gao: 102; HSV augment: inactive; PKD1 inh: 0; Insulin prom inh cell count: 77; HSV augment primary fold: 0.88

What do the screens show for `CN(C)S(=O)(=O)c1ccc(C(=O)NCc2ccccn2)cc1`?
RGS16-Gao: 105; HSV augment: inactive; PKD1 inh: 3; HSV augment primary fold: 1

Results for CCN(CC)S(=O)(=O)c1cc(C(=O)OCC(=O)c2ccc3c(c2)NC(=O)CO3)ccc1F ?
Insulin prom inh: -55; RGS16-Gao: 99; GALR2 agonist: -1.3; HSV augment: inactive; PKD1 inh: -3; Insulin prom inh cell count: 106; HSV augment primary fold: 0.94

How did CCOC(=O)c1cccc(N2C(=O)c3ccccc3S2(=O)=O)c1 do in these assays?
Insulin prom inh: -19; RGS16-Gao: 101; GALR2 agonist: -1.8; PKD1 inh: 1; Insulin prom inh cell count: 111

How did CCOC(=O)Nc1cc2c(cc1C(C)=O)OCO2 do in these assays?
Insulin prom inh: 26; RGS16-Gao: 97; GALR2 agonist: 0.1; HSV augment: inactive; PKD1 inh: -12; Insulin prom inh cell count: 88; HSV augment primary fold: 0.87

What do the screens show for `N#Cc1ccccc1OCCN1C(=O)c2ccccc2C1=O`?
Insulin prom inh: 8; RGS16-Gao: 72; GALR2 agonist: -2.0; HSV augment: inactive; PKD1 inh: -6; Insulin prom inh cell count: 125; HSV augment primary fold: 1

What do the screens show for `O=C(COC(=O)c1ccc(Cl)c([N+](=O)[O-])c1)Nc1ccccc1OC(F)F`?
Insulin prom inh: 23; RGS16-Gao: 85; GALR2 agonist: -1.4; HSV augment: inactive; PKD1 inh: -4; Insulin prom inh cell count: 126; HSV augment primary fold: 1

What do the screens show for `O=C(NNC(=O)c1ccc(SCC2CCCO2)c([N+](=O)[O-])c1)c1ccc(Cl)c([N+](=O)[O-])c1` (stereo not given)?
Insulin prom inh: 13; RGS16-Gao: 95; GALR2 agonist: -0.2; HSV augment: inactive; PKD1 inh: -11; Insulin prom inh cell count: 121; HSV augment primary fold: 1.3
